Beta2AR agonist: beta2AR agonists driving receptor internalization, primary screen, cell-based, FAP fluorogen, flow cytometry; Beta-2 adrenergic receptor (Homo sapiens), P07550; Am2.2-beta2AR cells; reference of the scale not given here; response, % (concentration not given with the values); 0.43% of 340,000 active; AID 504454, 2011;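 active = response above a set limit, near 3 SD of response in nonfluorescent compounds, cut at about 42% in these data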;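 note: stock transfer was 100 nL into about 11 µL; a reference agonist was the positive control; negative values mostly stem from fluorescent compounds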
HNF4A DNA FP: change in binding of human HNF4A to DNA, primary screen, biochemical, fluorescence polarization, FITC-DNA; Hepatocyte nuclear factor 4-alpha (Homo sapiens), P41235; 1 h; activity change, % at 10 µM; 0.3% of 360,000 active; AID 1224865, 2016; in the data active = activity change above about 30%, passing the limit was not always enough;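 note: controls were the assay level and a saturating level of protein; the project sought stronger binding though the title names inhibitors; some compounds called inactive have numbers as strong as hits; positive values seem to mean higher polarization but the record does not say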
ALR inh: inhibitors of human ALR sulfhydryl oxidase, primary screen, biochemical, H2O2 detection, HRP-luminol luminescence, single point | 3.8% of 290,000 active | purified ALR, DTT oxidation | inhibition, % (concentration not given with the values) | FAD-linked sulfhydryl oxidase ALR (Homo sapiens), P55789;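 active = mean and each replicate at 75% or more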;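 note: stock transfer was 7.5 nL into about 7.5 µL; 0% = neutral wells and 100% = wells with inactivated enzyme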
Ecoli growth: E. coli growth inhibition, primary screen, OD600 | Escherichia coli growth, 23 h; hits give low values | OD600 absorbance (test concentration not listed) | AID 1053175, 2014 | 0.21% of 330,000 active;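 active = OD600 absorbance below the run mean of sample wells minus 3.6 SD, in any replicate, cut at about 0.56 in these data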;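 note: stock transfer was 300 nL into about 60 µL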
FGF22 binding: binders of human FGF22 protein, primary screen, FGF22 synaptogenesis inhibitor project, biophysical, thermal shift, single point. Fibroblast growth factor 22 (Homo sapiens), Q9HCT0. recombinant FGF22 thermal shift, SYPRO orange fluorescence; percent of sucrose octasulfate shift, DMSO zero. calls only at 9.99 µM. 1.5% of 340,000 active;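 active = melting point raised past a set limit in the mean and every replicate; three in four hits are not shown here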
UCH37 DUB inh: inhibitors of human UCH37 deubiquitinase, primary screen, biochemical, Ub-AMC cleavage, fluorescence | 0.33% of 330,000 active | inhibition, % (no concentration beside the values) | Ubiquitin carboxyl-terminal hydrolase isozyme L5 (Homo sapiens), Q9Y5K5 | purified proteasome/UCH37;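 active = mean of two replicates above 20%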;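 note: 0% = compound-free wells with enzyme and 100% = wells lacking proteasome; stock transfer was 100 nL into about 20 µL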
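Signal – fluorescence, ex 355 nm, em 460 nm · System – Proteasome-bound UCH37 · Input – 0.15 nM proteasome as dispensed · Timing – 30 min preincubation with enzyme, 25 min cleavage at room temperature · Read-out basis – percent inhibition of cleavage signal versus uninhibited and no-proteasome wells · Medium – Tris-HCl pH 7.4 with ATP-MgCl2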
LANA-H2A inh: blockers of LANA interaction with H2A/H2B – biochemical, FP readout, HTS, primary screen; cell-free LANA-H2A/H2B peptide, fluorescence polarization; inhibition, % (test concentration not listed); AID 2629, 2010; 0.6% of 320,000 active; in the data active = inhibition mostly above about 10%, no sharp cut-off; inactive = mostly below about 6.7%;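 note: stock transfer was 7.5 nL into about 10 µL; 0% = median of vehicle wells and 100% = median of positive control wells; one replicate is shown; the record names a cut of 25% in any replicate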
Target sequence (Q9QR71 whole entry, looked up): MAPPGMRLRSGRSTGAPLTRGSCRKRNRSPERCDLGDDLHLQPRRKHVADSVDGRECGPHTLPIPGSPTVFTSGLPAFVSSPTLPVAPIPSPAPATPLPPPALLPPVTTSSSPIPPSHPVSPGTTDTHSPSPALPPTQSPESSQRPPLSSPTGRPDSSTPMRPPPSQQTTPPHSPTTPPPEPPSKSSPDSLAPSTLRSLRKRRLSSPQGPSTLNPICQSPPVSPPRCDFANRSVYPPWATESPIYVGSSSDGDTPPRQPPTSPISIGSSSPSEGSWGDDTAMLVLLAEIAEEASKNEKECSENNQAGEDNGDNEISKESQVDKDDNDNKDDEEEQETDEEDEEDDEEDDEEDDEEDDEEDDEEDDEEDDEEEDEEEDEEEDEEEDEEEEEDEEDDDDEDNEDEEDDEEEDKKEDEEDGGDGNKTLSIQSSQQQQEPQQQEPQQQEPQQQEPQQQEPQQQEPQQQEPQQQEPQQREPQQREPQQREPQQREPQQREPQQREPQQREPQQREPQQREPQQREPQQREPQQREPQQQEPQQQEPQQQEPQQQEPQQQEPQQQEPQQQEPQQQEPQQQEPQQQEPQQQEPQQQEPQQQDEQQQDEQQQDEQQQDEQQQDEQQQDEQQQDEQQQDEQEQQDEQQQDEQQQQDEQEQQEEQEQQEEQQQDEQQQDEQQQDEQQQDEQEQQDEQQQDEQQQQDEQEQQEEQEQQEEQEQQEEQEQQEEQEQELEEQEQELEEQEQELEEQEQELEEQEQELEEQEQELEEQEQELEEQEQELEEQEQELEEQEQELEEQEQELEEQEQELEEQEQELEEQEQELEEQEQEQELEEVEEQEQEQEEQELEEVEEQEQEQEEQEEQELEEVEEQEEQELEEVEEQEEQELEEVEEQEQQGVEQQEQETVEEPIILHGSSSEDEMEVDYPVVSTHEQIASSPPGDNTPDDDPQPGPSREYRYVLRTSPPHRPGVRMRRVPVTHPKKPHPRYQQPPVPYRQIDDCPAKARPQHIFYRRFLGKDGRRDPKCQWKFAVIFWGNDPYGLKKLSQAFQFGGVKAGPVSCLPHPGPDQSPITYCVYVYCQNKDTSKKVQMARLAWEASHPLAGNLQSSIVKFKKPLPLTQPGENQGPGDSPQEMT
Starred values were filed as active, the others as inactive; i = inactive; . = no result given. Only part of the results is shown; rates above refer to the full screens.

SMILES	Beta2AR agonist	HNF4A DNA FP	ALR inh	Ecoli growth	FGF22 binding	UCH37 DUB inh	LANA-H2A inh
CC(C)CNC(=O)c1cccc(NC(=O)C(C)C)c1	-4.0	7.8	-2.1	0.671	i	3.3	-1.3
C=CCn1c(C)cc(-c2csc(NC)n2)c1C	-0.3	-4.8	.	0.7	.	0.6	.
COc1ccc(CCNC(=O)c2cc(-c3ccc(C)cc3O)n[nH]2)cc1OC	-6.8	0.9	-3.4	0.66	.	-0.4	2.7
O=C(O)C(Cc1ccccc1-c1ccccc1)C(=O)O	10.6	-2.9	-4.0	0.645	i	0.5	1.5
Cc1ccc(OCC(=O)N/N=C\c2ccc(O)c([N+](=O)[O-])c2)c([N+](=O)[O-])c1	-23.4	-5.1	2.2	.	i	.	12.8*
COc1ccc(NC(=O)N2CCCC2C(=O)Nc2cccc(C)c2C)cc1 (stereo unspecified)	-1.4	-3.2	-1.6	0.632	.	0.4	0.2
CCN(c1ccc(NC(=O)COC(=O)C2CCN(c3ccc(C(F)(F)F)cn3)CC2)cc1)C(C)C	-6.5	2.9	.	0.735	i	-0.8	.
C=C1CCC[C@]2(C)C[C@H]3OC(=O)C(CN4CC(C)OC(C)C4)[C@H]3C[C@@H]12 (stereo partly specified)	4.1	1.9	-25.2	0.653	i	5.6	0.0
O=C(NCc1ccccc1)C1=C[C@@H](C2CCCCC2)C[C@@H](OCCCCO)O1	-1.1	-0.9	3.5	.	i	2.4	-0.9
COc1c[nH]n(-c2ccccc2)c(=O)c1=O	3.9	1.4	3.4	0.651	i	5.0	4.5
COc1ccc2ccccc2c1CNCCN1CCOCC1	-6.8	1.1	-23.6	0.693	i	0.6	7.4
Cc1ccccc1Cn1nc(C)c(NC(=O)c2nc3n(n2)C(C(F)F)CC(C)N3)c1C (stereo unspecified)	-1.0	-1.4	0.7	0.712	.	-1.7	5.6
O=C(O)c1ccc2nc(CO)[nH]c2c1	1.3	3.4	-5.3	0.7	.	1.6	-2.5
Cc1cnc(NC(=O)CSc2nnc(N)s2)s1	-3.5	-1.4	-5.7	0.732	i	0.8	2.9
COc1ccc(-c2nc3n(n2)C(c2cccnc2)C(C(N)=O)=C(C)N3)cc1 (stereo unspecified)	-3.1	-0.7	6.1	0.722	.	1.3	-0.4
O=C(NC(=S)NCc1ccccc1)c1ccccc1Br	-3.1	1.8	-5.0	0.654	i	0.1	3.2
O=C(Nc1ccc(Cl)cn1)C1CCCN1S(=O)(=O)c1ccccc1 (stereo unspecified)	2.4	1.9	-1.7	0.75	.	5.9	-2.7
Cc1cc(C)n2cc(CSc3ncccc3C(=O)O)nc2n1	1.1	-1.2	2.7	0.678	.	-33.5	1.3
O=C(O)C1CCc2sc3[nH]c(=S)n(-c4ccccc4)c(=O)c3c21 (stereo unspecified)	-8.8	4.1	1.5	.	i	.	-1.9
COc1cccc(NS(=O)(=O)c2ccc(-n3cccn3)cc2)c1	-22.8	0.9	-6.0	0.686	i	-1.6	4.4
CC(C)CC(=O)Nc1ccc(-c2nnn(CC(=O)NCc3ccco3)n2)cc1	-1.7	1.4	-2.5	0.692	i	2.9	-4.0
O=C(Nc1ccc(Cl)cc1)Nc1ccc(Br)cn1	-6.2	-1.3	-18.3	0.71	i	6.3	4.4
CCN(CC)S(=O)(=O)c1cccc(NC(=O)COC(=O)/C=C/c2ccco2)c1	-8.6	-1.8	1.8	0.679	i	0.9	2.7
O=S(=O)(c1ccc2ccccc2c1)N(CC1CO1)c1ccccc1 (stereo unspecified)	-5.5	0.4	-34.4	0.683	i	4.5	-3.0
CC(C)c1nnc(NC(=O)CCC(=O)NCc2ccc(F)cc2)s1	-2.1	1.6	-5.0	0.678	i	4.6	3.5
(more compounds)
SMILES	Beta2AR agonist	HNF4A DNA FP	ALR inh	Ecoli growth	FGF22 binding	UCH37 DUB inh	LANA-H2A inh
CCN(CC)CCCNC(=O)N[C@@H](Cc1ccccc1)C(=O)O	0.6	0.8	-3.0	0.758	.	0.3	-4.5
COc1ccc(-c2noc(CCC(=O)Nc3nc4ccccc4s3)n2)cc1	.	.	-1.5	0.75	.	4.6	5.0
CC1(C)CC(=O)C=C(N=CC2=C(O)CC(C)(C)CC2=O)C1	2.0	-0.2	.	0.796	.	2.8	-7.7
CCN(c1ccc2c(c1)OCO2)S(=O)(=O)c1cc(Br)cc2c1N(C(C)=O)CC2	79.8*	-1.2	-14.6	0.663	i	2.2	0.7
COC(=O)c1[nH]c2c(c1C)C(=O)CC(c1ccc(OC)cc1)C2 (stereo unspecified)	1.1	1.7	-17.3	0.662	i	3.9	4.1
O=C1CCCC/C=C\C[C@H](CC(=O)N(CCO)Cc2ccccc2)C(=O)N[C@@H](c2ccccc2)CO1	-4.6	3.2	0.2	.	i	1.0	-1.2
Nc1cccc(-c2cc3ccccc3oc2=O)c1	-0.5	2.6	99.0*	0.671	i	5.7	1.6
O=C(CSCCO)Nc1ccc(C23CC4CC(CC(C4)C2)C3)cc1	-6.2	3.6	-2.1	0.737	.	4.4	-6.7
CC(C)n1c(/N=C/c2c[nH]c3ccccc23)nc2ccccc21	1.9	1.3	-6.2	.	i	.	0.2
O=C(O)CNc1nc(Cl)ccc1[N+](=O)[O-]	2.6	0.7	3.8	0.725	.	8.0	0.3
COc1ccc(-c2nnc3ccc(SCc4ccccc4)nn23)cc1	-44.0	4.4	.	.	i	.	0.7
O=C(CN1C(=O)S/C(=C/c2cccs2)C1=O)N1CCOCC1	-2.1	-1.2	-14.2	.	.	3.7	-4.3
Cc1onc(-c2ccccc2Cl)c1-c1nc(-c2ccncc2)no1	-0.8	-0.6	-24.2	0.641	.	4.0	-1.4
COC(=O)c1sc(NC(=S)NC(=O)c2cccc(C)c2)nc1C	-7.5	-2.1	-0.9	0.752	i	4.2	1.0
CCOc1ccc(N2C(=O)CSC2=NC#N)cc1	3.3	2.9	18.0	0.653	i	1.2	.
NC(=O)CC(NC(=O)Cc1ccc(Br)cc1)c1ccc(NCCN2CCOCC2)c([N+](=O)[O-])c1 (stereo unspecified)	-0.5	-2.3	.	0.745	i	-30.6	-2.9
CN(C)/C=C/C(=O)c1cccc(Cl)c1	0.5	-1.9	26.7	0.596	.	14.5	-3.9
O=[N+]([O-])c1cc(C(F)(F)F)ccc1NC1CCN(Cc2ccccc2)CC1	-9.5	-5.2	.	0.619	.	4.5	1.1
COc1cccc(Nc2n[nH]c(=S)s2)c1	3.5	3.6	54.2	0.642	i	0.7	-3.0
Cc1nc([N+](=O)[O-])c(C(=O)OCc2ccccc2)n1C	-5.9	2.2	-5.4	0.69	i	1.4	4.3
COCC(=O)Nc1cc([N+](=O)[O-])ccc1C	2.7	-1.7	-5.0	0.703	.	3.0	-2.5
O=C(CN1C(=O)c2ccccc2C1=O)NCC1COc2ccccc2O1 (stereo unspecified)	-6.1	7.1	-3.5	0.738	.	0.2	-2.0
O=C(O)CSc1nnc(-c2cccc(S(=O)(=O)N3CCOCC3)c2)n1-c1ccc(F)cc1	2.9	-2.1	-0.4	0.731	i	-1.5	-1.5
N#Cc1c2n(c3c(=O)n(Cc4ccccc4Cl)cnc13)CCCCC2	-7.6	0.3	-2.4	0.731	.	1.8	1.2
COC(=O)C1=CN(CC2CCCO2)C=C(C(=O)OC)C1c1ccccc1C(F)(F)F (stereo unspecified)	-4.7	1.9	-3.0	0.71	.	-289.6	11.4

Reformatted: 6 of the compounds above.
Screens in order: Beta2AR agonist | HNF4A DNA FP | ALR inh | Ecoli growth | FGF22 binding | UCH37 DUB inh | LANA-H2A inh
COc1ccc(-c2noc(CCC(=O)Nc3nc4ccccc4s3)n2)cc1
 : . | . | -1.5 | 0.75 | . | 4.6 | 5.0
CCN(CC)CCCNC(=O)N[C@@H](Cc1ccccc1)C(=O)O
 : 0.6 | 0.8 | -3.0 | 0.758 | . | 0.3 | -4.5
COC(=O)c1sc(NC(=S)NC(=O)c2cccc(C)c2)nc1C
 : -7.5 | -2.1 | -0.9 | 0.752 | i | 4.2 | 1.0
COc1c[nH]n(-c2ccccc2)c(=O)c1=O
 : 3.9 | 1.4 | 3.4 | 0.651 | i | 5.0 | 4.5
CCOc1ccc(N2C(=O)CSC2=NC#N)cc1
 : 3.3 | 2.9 | 18.0 | 0.653 | i | 1.2 | .
O=C(CSCCO)Nc1ccc(C23CC4CC(CC(C4)C2)C3)cc1
 : -6.2 | 3.6 | -2.1 | 0.737 | . | 4.4 | -6.7

Later entries:
SMILES	Beta2AR agonist	HNF4A DNA FP	ALR inh	Ecoli growth	FGF22 binding	UCH37 DUB inh	LANA-H2A inh
CCOC(=O)C1=NN(C(=O)Cc2ccccc2)C(O)(C(C)(C)C)C1 (stereo unspecified)	-5.0	3.3	3.1	0.664	i	1.0	0.6
COc1ccc(OC)c(Nc2nnc(C)c(=O)[nH]2)c1	.	.	-20.8	0.705	i	4.9	4.3
COc1ccc(CC(=O)N2CCc3ccccc32)cc1	-5.2	-0.8	-6.6	0.759	.	0.6	-4.3
O=C(CSc1nnnn1C1CCCC1)Nc1ccc(F)cc1	-22.3	0.1	.	0.697	.	3.2	-2.4
CC[C@H](C)[C@H](NC(=O)OCc1ccccc1)C(=O)OCC(=O)N1CCN(c2ccc(OC)cc2)CC1	-4.8	0.9	.	0.7	i	-1.1	.
O=C(Nc1ccon1)c1cc2c(s1)CCCC2	-11.0	2.9	-6.4	0.608	i	0.4	0.3
CCc1noc(C)c1C(=O)OC(C)C(=O)NCc1ccc(OC)cc1 (stereo unspecified)	-3.9	0.5	.	0.71	i	1.1	-3.7
COc1ccc(C2NC(=O)c3n[nH]c(C)c32)c(OC)c1 (stereo unspecified)	0.1	-2.7	-10.2	0.73	i	5.8	1.6
CC[C@@]1(C(=O)OC)N[C@H](CN(C)C(=O)Nc2ccc(C)cc2)[C@@H]2C(=O)N(Cc3ccccc3)C(=O)[C@@H]21	-2.2	0.4	.	.	.	.	-4.0
O=C(Nc1cccc(F)c1)C1CCN(S(=O)(=O)c2cccc3nonc23)CC1	3.2	-0.1	-13.2	0.702	i	1.3	3.2
CC1CC(C)CN(C(=O)COC(=O)c2cccc([N+](=O)[O-])c2)C1 (stereo unspecified)	0.8	0.8	-7.1	0.712	i	-2.5	0.8
COC(OC)c1ccnc(-c2ccc(OC(=O)c3ccccc3)cc2)n1	-4.9	1.3	.	0.652	i	-2.1	6.2
O=C(NCCc1ccccc1F)C1CCCN(c2nc3ccccc3s2)C1 (stereo unspecified)	-0.2	2.4	2.7	0.65	i	4.0	0.4
CCOc1ccccc1NC(=O)C1CCC(CNc2c(N3CCOCC3)c(=O)c2=O)CC1 (stereo unspecified)	-6.2	6.5	-8.1	0.727	i	3.1	0.3
COc1ccc(NC(=O)C2C3CCC(C3)C2C(=O)O)cc1OC (stereo unspecified)	-5.8	-0.1	13.0	0.712	.	1.8	2.6
Cc1ccc(-c2nc3ccccc3s2)cc1S(=O)(=O)N1CCCC1	-0.3	0.5	-1.3	0.743	i	5.2	1.6
COc1ccc(C2Nc3ccccc3C(=O)N2NC(C)=O)cc1OC (stereo unspecified)	-7.5	2.5	-29.9	0.7	i	-311.8	2.8
CC(C)(C)NC(=O)C1c2ccccc2Oc2ccccc21	14.7	0.4	-4.9	0.677	i	0.2	6.1
O=C(NCc1ccccc1Cl)c1cc(=O)[nH]c2ccccc12	3.0	1.8	2.1	0.707	i	-14.9	-0.3
COc1ccc(S(=O)(=O)N2CCC(C(=O)Nc3cccc(C(C)=O)c3)CC2)cc1	4.5	0.7	-3.9	0.699	.	1.0	-4.4
CCOC(=O)c1[nH]c(C)c(C(=O)NCCN2CCOCC2)c1C	-3.4	1.3	-4.0	0.729	i	5.0	0.5

Screening data: PubChem, several laboratories
